Assay outcomes (PubChem BioAssay)
AID504770: growth inhibition of E. coli YBA685, primary screen, V. cholerae RctB inhibitors; E. coli YBA685 rctB-dependent plasmid, OD600 growth, 3 h; stronger effect = lower value; z-score (concentration not given with the values); hit rate 0.27% among 130,000; AID 504770, 2011;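 active means z-score under -2 on both plates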;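 further: wells of about 30 µL received 100 nL stock; score is relative to mean and SD of the test wells; the first replicate is given; strong numbers were not always called active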
CapD inh: Bacillus anthracis CapD inhibitors, primary screen, biochemical, fluorescence intensity. hit rate 0.23% among 140,000. CapD gamma-glutamyltranspeptidase (Bacillus anthracis Ames Ancestor). AID 492967, 2010. z-score (concentration not given with the values). purified CapD enzyme, fluorescence intensity read-out; stronger effect = lower value; some hits fall short of the stated cut;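 active means z-score under -4 in either of two replicates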;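 further: stock transfer was 100 nL into about 40 µL; score is relative to mean and spread of the plate; one replicate is shown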
* = called active by the depositor; . = not tested or not shown. This is a subset, so the mix of outcomes need not match the whole.

SMILES	AID504770	CapD inh
CC(=O)Nc1nc2ccc(NC(=O)c3ccc(N)cc3)cc2s1	.	7.65
CN(Cc1ccccc1)S(=O)(=O)c1ccc2c(c1)CCN2C(=O)CCC(=O)O	-0.3	-2.05
CC(=O)N1CCc2cc(NC3CCN(C)CC3)ccc21	.	-0.345
Cc1ccc2nc(COC(=O)CNC(=O)c3ccc(Br)o3)cc(=O)n2c1	1.3	.
CCOC(=O)c1cc(=O)oc2cc(O)ccc12	0.2	-1.22
Cc1nc2ccc(NC(=O)C3=COCCO3)cc2s1	-0.7	-0.84
O=C(NC1CCCCCCC1)C1CCCC1	-0.55	0.18
CCN1C(=O)/C(=C/c2ccc(C(C)C)cc2)NC1=S	1.35	-1.42
CCOc1ccc(NC(=O)c2ccccc2NC(=O)CN2CCOCC2)cc1	-0.2	.
Nc1ccc(-c2nc3c(Cl)c(N)ccc3[nH]2)cc1Cl	1.05	69.3
CSCCn1c(-c2ccccc2)cc(C(=O)N2CCOCC2)c1C	0.1	0.66
CSC(N)=Nc1cccc(Cl)c1Cl	-0.45	-0.045
Cn1cnnc1SCc1ccc(C(=O)N/N=C2\CCSC2)cc1	-0.1	.
CCCN1C(=O)c2cc(C(=O)O)ccc2C1O (stereo not given)	-0.4	0.1
O=c1[nH]c2ccc(S(=O)(=O)N3CCN(c4cccc(C(F)(F)F)c4)CC3)cc2[nH]1	-0.75	.
C=CCN1C(=O)CN2c3ccccc3C(C)(C)C12C (stereo not given)	-0.3	0.425
COc1ccc(N/C=C/c2nc(SCc3ccc(Cl)cc3)nnc2C)cc1	.	0.355
CC(CN1CCCCC1)OC(=O)C1c2ccccc2Oc2ccccc21 (stereo not given)	-0.35	-0.365
CCOC(=O)C1=C(N)OC2=C(C(=O)CC(C)(C)C2)C12C(=O)Nc1ccc(Br)cc12 (stereo not given)	.	-0.03
COc1ccccc1C(C#N)c1cccc(Cl)n1 (stereo not given)	1.15	-0.875
COc1ccc(-c2nc(N3CCCC3)nc3n[nH]c(N)c23)cc1	1.15	-0.75
Cn1c(CCNC(=O)c2ccccc2)nc2ccccc21	1.1	0.175
Nc1ccc2c(c1)OCCOCCOCCO2	-0.6	.
c1ccc(COc2nsnc2N2CCOCC2)cc1	-0.15	0.015
CCc1cc(=O)oc2c3c(c(Cl)cc12)OCN(Cc1ccco1)C3	0.35	105
CCOC(=O)c1c(-c2ccco2)csc1NC(=O)Cn1cnc2ccccc2c1=O	0.15	.
CCOC(=O)c1c(NC(=O)c2cccs2)sc(C(=O)Nc2cc(C(F)(F)F)ccc2Cl)c1C	.	1.34
CC(=O)NC1(C(F)(F)F)N=C(c2ccc(C)cc2)NC1=O (stereo not given)	-0.4	-0.305
Cc1cc(C(=O)CSc2n[nH]c(-c3cccs3)n2)c(C)n1-c1nccs1	0.35	.
O=C(N/N=C/c1ccc([N+](=O)[O-])s1)c1ccc(OC(F)(F)F)cc1	.	-0.775
CC1CCN(C(=O)COC(=O)Cc2c(Cl)cccc2Cl)CC1	-1.55	-0.575
Cc1c(C(=O)CN2CCN(c3ccc(C(F)(F)F)cn3)CC2)sc2ccc(Cl)cc12	.	0.51
N#Cc1nc(-c2ccccc2F)oc1NCCc1ccccc1	1.1	49.4
O=C(COn1nnc2ccccc21)NC(=O)Nc1ccc2c(c1)OCCO2	-0.7	.
COc1ccc(N2CC(C(=O)OCC(=O)Nc3ccccc3C(F)(F)F)CC2=O)cc1 (stereo not given)	0.35	77
CC1CCN(c2nc3nonc3nc2Nc2cccc(Br)c2)CC1	.	0.265
CC(=O)O/C(=C\c1cn(C(C)=O)c2ccccc12)C(=O)O	-0.65	0.42
COC(=O)C1Cc2c([nH]c3ccccc23)CN1 (stereo not given)	.	13.4
O=C(NCc1cccnc1)c1ccc(Br)cc1	1.85	0.005
CCCn1nnnc1Cn1cnc2scc(-c3ccc(C)s3)c2c1=O	1.4	.
CCOC(=O)CCc1c(C(=O)OCC)[nH]c(CC)c1C(=O)OCc1ccccc1	-0.35	-0.765
OC(CN1CCN(c2ccccc2F)CC1)c1ccc(Br)cc1 (stereo not given)	.	-0.325
CCC(C)(C)c1ccc(S(=O)(=O)NCC2CC2)cc1	.	-0.035
CN(C)c1ccc(C=C2C(=O)NC(=S)NC2=O)cc1	-1.9	-1.52
O=C(Nc1ccc(Cn2cc(C(F)(F)F)ccc2=O)cc1)N1CCOCC1	.	3.84
Cc1ccccc1NC1SC(=O)N(CCC(=O)O)C1=O (stereo not given)	-0.15	0.63
O=C(CCCN1C(=O)/C(=C/c2cccc(Br)c2)SC1=S)NCCCN1CCOCC1	.	-1.18
O=[N+]([O-])c1cc(Cl)c(-n2cccc2)cc1Sc1ccc(F)cc1Cl	.	0.07
CN(CC(=O)NCc1ccccc1Cl)S(=O)(=O)c1cccs1	-0.7	1.28
COc1ccc(CNc2ccc(C(=O)O)cc2)cc1	-0.8	0.09
CC(=O)N1CCOc2ccc(S(=O)(=O)N(C)CC(=O)Nc3ccc(C)cc3)cc21	-0.5	0.51
Cc1ccc(C)c(-n2c(SCc3nc(-c4cccs4)oc3C)nnc2-c2cc3sccc3n2C)c1	-0.15	1.3
COc1cc2c(cc1OC)C(c1ccc(C)s1)CC(=O)N2 (stereo not given)	1.25	0
CCCN1C(=O)NC2C1NC(=O)N2CCC (stereo not given)	.	-0.185
CC(C)NC(=O)c1ccc(-c2ccccc2)s1	0.5	51
CN(C)C(=O)c1ccc(-c2n[nH]c(=O)c3ccccc23)cc1	1.05	0.31
CC1=NN(C(=O)COc2cc(C)cc(C)c2)C(O)(C(F)(F)F)C1 (stereo not given)	-0.45	80.3
O=C(NC1CCN(Cc2ccccc2)CC1)c1ccc(NS(=O)(=O)c2cccs2)cc1	-0.75	0.12
CCCS(=O)(=O)c1c(S(=O)(=O)CCC)c2c(C)cccn2c1C(=O)N/N=C/c1cc(OC)c(OC)c(OC)c1	.	-0.17
CCOC(=O)N1CCC(N2Cc3ccc(C(=O)NCc4ccccc4OC)cc3C2=O)CC1	0.9	-0.635
Further structures
SMILES	AID504770	CapD inh
O=C1c2ccccc2C(=O)c2c([N+](=O)[O-])ccc(O)c21	.	0.185
c1cc2c(cc1CN1CCSCC1)OCO2	-0.45	-0.37
CCCS(=O)(=O)c1c(S(=O)(=O)CCC)c2cnccn2c1C(=O)c1ccc(F)cc1	.	24.8
Cc1csc(C(=O)NNC(=O)OCCc2cccc(F)c2)c1-n1cccc1	.	-0.11
Cn1c(=O)c2c(ncn2CC(=O)Nc2ccc(C#N)c(Cl)c2)n(C)c1=O	-1.75	0.475
Cc1nc(N)nc(OCC(F)(F)C(F)F)c1Br	-0.35	0.13
CN(C)c1ccc(NC(=O)Nc2ccc(F)cc2)cc1	0.6	0.585
Cc1ccc(NC(=O)c2ccc(Oc3ccc(C(=O)Nc4ccc(C)cc4)cc3)cc2)cc1	0.4	-0.685
CCOc1ccc(C(=O)c2ccccc2C(=O)O)cc1OCC	1.75	.
Cc1ccc(CNC(=O)Nc2ccc(C(C)(C)C)cc2)n1C	-0.45	0.235
COC(=O)C1=C(Cn2cnc3ccccc32)NC(=O)NC1c1ccc(OC)cc1 (stereo not given)	0	.
O=C(CSc1ccccc1)Nc1ccccc1C(F)(F)F	-0.1	-0.075
CCOC(=O)c1cc(C#N)c(C)nc1N1CCN(C(=O)OCC2CCCCN2Cc2cc(OC)c3c(c2)OCO3)CC1 (stereo not given)	.	0.655
Cc1cc(S(=O)(=O)N2CC=C(c3ccccc3)CC2)c(C(F)(F)F)o1	-0.95	0.095
COc1cc(/C=C2/SC(=Nc3ccccc3)N(CCc3ccccc3)C2=O)ccc1OCC(N)=O	-0.15	6
COc1ccc2[nH]c(=O)c(C(c3nnnn3Cc3ccccc3)N3CCCC3)cc2c1 (stereo not given)	-2.55	.
O=C(COC(=O)C12CCC(=O)N1c1ccccc1S2)N1CCC(c2ccccc2)=N1 (stereo not given)	-0.4	.
Cc1ccc2[nH]cc(CCNC(=O)OCCCNC(=O)OC(C)(C)C)c2c1	.	0.27
CCN(CC)C(=O)CSc1nc2ccccc2c(=O)n1CCCC(=O)NCCc1ccc(OC)c(OC)c1	.	-0.39
N#Cc1ccc(COC(=O)C2CN(Cc3ccc(C#N)cc3)CCS2)cc1 (stereo not given)	0.25	.
COc1cccc(NC(=O)Cn2sc3ccccc3c2=O)c1	-2.55*	.
O=c1cc(-c2ccccc2)[nH]c2ccccc12	.	11.9
COc1cc(OC)nc(N2CCN(C(=O)c3ccccc3NC(=O)c3c(F)cccc3F)CC2)n1	.	-0.58
CN1CCN(C(=O)CNC(=O)Cn2cnc3sc4c(c3c2=O)CCCC4)CC1	.	-0.04
Cc1ccc(C(=O)OCC(=O)N2CCC(c3ccccc3)=N2)cc1	1.15	.
COCCN1C(=O)c2ccccc2C(C(=O)Nc2ccc(C(C)C)cc2)C1c1ccc(F)cc1 (stereo not given)	.	-0.145
O=C(O)c1cc2c(s1)CCCCC2	0.5	.
COc1ccc(-c2nc(=S)c3c(n2CCN2CCOCC2)CC(C)(C)OC3)cc1	-0.7	-2.06
CC1CCc2c(sc3nc(SCC(N)=O)nc(NCc4ccccc4)c23)C1 (stereo not given)	-0.3	-0.685
Fc1ccc(-c2cn3nc4c(nc3n2)CCCC4)cc1	-0.15	0.5
Cc1onc(-c2c(F)cccc2Cl)c1C(=O)NCC(=O)c1ccc(Br)cc1	.	0.3
N#CCC(=O)Nc1ccc(Cl)cc1	.	-0.075
COc1ccc2c(C)cc(SCc3c(C)noc3C)nc2c1	0.2	-0.51
O=C(O)CCC(=O)NCc1c(Cl)cccc1Sc1ccc(Cl)cc1	1.35	-0.11
CC1CN(C2CCN(Cc3ccccn3)CC2)CC(C)O1 (stereo not given)	-0.95	-0.96
COc1ccc(S(=O)(=O)N2CCn3c(nc4ccccc43)C2)cc1OC	0.15	-0.78
CCOC(=O)C1=C(N)OC2=C(C(=O)CC(c3ccccc3)C2)C1c1cc([N+](=O)[O-])ccc1Cl (stereo not given)	.	-0.295
CC(=O)N1CCc2cc(N)ccc21	2	.
CC(=O)NC1=NC(=O)/C(=C\c2ccc(C)cc2)S1	0.05	0.02
FC(F)(F)c1ccc(-c2[nH]ncc2-c2nc3ccccc3o2)cn1	.	5.71

Overlap with the part before: 3 compounds, followed by the next part.
SMILES	AID504770	CapD inh
CC(=O)N1CCc2cc(N)ccc21	2	.
CC(=O)NC1=NC(=O)/C(=C\c2ccc(C)cc2)S1	0.05	0.02
FC(F)(F)c1ccc(-c2[nH]ncc2-c2nc3ccccc3o2)cn1	.	5.71
CCCCN1CC(C(=O)NCCc2ccccc2)CC1=O (stereo not given)	-0.6	-0.615
CCC1c2[nH]c3ccccc3c2CCN1C(=O)Nc1cccc(C)c1 (stereo not given)	0.35	-0.665
C/C(=N/O)c1nonc1/C(C)=N\O	-0.35	.
CCC(Sc1nc2ccccc2o1)C(=O)O (stereo not given)	0.45	0.315
c1ccc(CNn2cn[n+](Cc3ccccc3)c2)cc1	0.8	-0.2
COc1cccc(NC(=O)c2c(O)c3cccc4c3n(c2=O)CC4)c1	-1.35	3.01
Oc1ccccc1-c1cc(-c2ccccc2)nn1Cc1ccc(Cl)cc1	-0.6	0.185
CC(C)(C)OC(=O)N1CCC(c2c(C(=O)N3CCCC3)cnn2-c2ccccc2)CC1	-0.5	-0.23
CCc1nnc(SCC(=O)N2CCNC(=O)C2CC(=O)OC)n1N (stereo not given)	0.8	.
N#Cc1c(NC(=O)CSc2ncnc3c2cnn3-c2ccccc2)sc2c1CCC2	-0.6	.
O=C1c2ccccc2C(=O)N1CN(C(=O)c1ccccc1)c1ccc(Br)cc1	-1	-0.695
CCOC(=O)C1=C(C)N=c2s/c(=C\c3ccc(Br)o3)c(=O)n2C1c1ccc(OC)c(OC)c1 (stereo not given)	.	0.485
COc1ccc(COC(=O)C2=C(C)NC3=C(C(=O)CC(C)(C)C3)C2c2cc([N+](=O)[O-])ccc2Cl)cc1 (stereo not given)	.	-0.175
O=C(Nc1ccc(N2S(=O)(=O)c3ccccc3S2(=O)=O)cc1)c1ccccc1F	.	-0.68
COc1ccc(NC(=O)c2cc(-c3ccc(OC)cc3)nc3ccccc23)cc1	.	0.815
C1=C(CCNc2nnc(Cc3cccnc3)c3ccccc23)CCCC1	-0.75	-1.35
O=C(CSc1nncn1-c1ccccc1)NCc1ccccc1	-0.2	0.16
O=C(CCCc1ccccc1)Nc1cccnc1	-1.4	0.185
COc1ccc(CCNC(=S)N2CCCC2)cc1OC	-0.95	0.025

Entries from the list above with an aryl thioether with sulfur outside any ring (14):
SMILES	AID504770	CapD inh
Cn1cnnc1SCc1ccc(C(=O)N/N=C2\CCSC2)cc1	-0.1	.
COc1ccc(N/C=C/c2nc(SCc3ccc(Cl)cc3)nnc2C)cc1	.	0.355
Cc1cc(C(=O)CSc2n[nH]c(-c3cccs3)n2)c(C)n1-c1nccs1	0.35	.
O=[N+]([O-])c1cc(Cl)c(-n2cccc2)cc1Sc1ccc(F)cc1Cl	.	0.07
Cc1ccc(C)c(-n2c(SCc3nc(-c4cccs4)oc3C)nnc2-c2cc3sccc3n2C)c1	-0.15	1.3
O=C(CSc1ccccc1)Nc1ccccc1C(F)(F)F	-0.1	-0.075
CCN(CC)C(=O)CSc1nc2ccccc2c(=O)n1CCCC(=O)NCCc1ccc(OC)c(OC)c1	.	-0.39
CC1CCc2c(sc3nc(SCC(N)=O)nc(NCc4ccccc4)c23)C1 (stereo not given)	-0.3	-0.685
COc1ccc2c(C)cc(SCc3c(C)noc3C)nc2c1	0.2	-0.51
O=C(O)CCC(=O)NCc1c(Cl)cccc1Sc1ccc(Cl)cc1	1.35	-0.11
CCC(Sc1nc2ccccc2o1)C(=O)O (stereo not given)	0.45	0.315
CCc1nnc(SCC(=O)N2CCNC(=O)C2CC(=O)OC)n1N (stereo not given)	0.8	.
N#Cc1c(NC(=O)CSc2ncnc3c2cnn3-c2ccccc2)sc2c1CCC2	-0.6	.
O=C(CSc1nncn1-c1ccccc1)NCc1ccccc1	-0.2	0.16
